Bioassay records (PubChem)
VDR inhibitor – Inhibitors of the vitamin D receptor (VDR): qHTS; VDR-SRC2-3 peptide fluorescence polarization, 2 h; Vitamin D3 receptor (Homo sapiens), P11473; 400,000 tested, 0.93% active; Potency, µM, for the others: max response, negative = inhibition, usual class: inhibitors; active = well fitted inhibition curve with a large enough effect; inconclusive = small, poorly fitted or top-dose-only effect, or another doubt; inactive = no such curve, though single readings can be large or run the other way; note: series mostly up to about 120 µM
Target sequence (P11473 whole entry, looked up): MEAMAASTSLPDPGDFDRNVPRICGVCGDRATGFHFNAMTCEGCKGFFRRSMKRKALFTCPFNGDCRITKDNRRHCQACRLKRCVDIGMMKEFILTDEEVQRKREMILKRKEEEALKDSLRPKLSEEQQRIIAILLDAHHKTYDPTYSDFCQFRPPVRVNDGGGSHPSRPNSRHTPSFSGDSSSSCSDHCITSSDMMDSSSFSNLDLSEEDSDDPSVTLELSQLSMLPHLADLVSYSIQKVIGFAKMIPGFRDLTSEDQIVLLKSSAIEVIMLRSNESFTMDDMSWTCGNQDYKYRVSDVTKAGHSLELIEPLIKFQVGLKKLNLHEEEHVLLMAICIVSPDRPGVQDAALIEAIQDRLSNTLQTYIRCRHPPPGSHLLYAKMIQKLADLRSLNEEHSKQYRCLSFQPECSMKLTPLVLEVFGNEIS
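VDR–SRC2-3 interaction, FP format. Cmpds 23 nl via pintool, brief spin, 2 h ambient incubation.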
* marks the source's active call; other numbers are inactive results; ? = inconclusive; & = joins results of further samples. % is set by controls: 0 for no effect and ±100 for the full control effect; potency is the fitted concentration of half-maximal effect. This is a subset; the hit share may differ from the screen's.

VDR inhibitor,smiles
-6%,CCOc1ccc(OCc2ccc(C(=O)NC(C)(C)C)o2)cc1
27%,CC1(c2cc(F)ccc2F)NC(=O)N(CC(=O)Nc2cccc(S(=O)(=O)N3CCCC3)c2)C1=O (stereo not drawn)
?,O=C(Oc1ccc(N(C(=O)c2ccncc2)S(=O)(=O)c2ccc(Cl)cc2)cc1)c1ccncc1
0%,C=CCN1C(=O)C(Cc2ccc(Br)cc2)S/C1=N\N=C\c1ccco1 (stereo not drawn)
-6%,COc1ccccc1OCCNC(=O)c1ccccc1OCc1c(C)noc1C
-1%,Nc1nc(-c2ccc(Cl)cc2)nc(-c2ccc(Cl)cc2)n1
-4%,CCOC(=O)c1ccc(NC(=O)CN2C(=O)COc3ccc(Cl)cc32)cc1
-2%,CC(C)c1cc(C(=O)N2CCCC(N3CCN(c4ccccc4F)CC3)C2)nc(N)n1 (stereo not drawn)
-19%,CCOCCn1c(SCC)nc2c1c(=O)[nH]c(=O)n2C
-19%,O=C(Nc1ccc(NC(=O)c2cccs2)cc1)c1cccnc1
-12%,Cc1ccc(C(=O)c2cnc3cc4c(cc3c2S(=O)(=O)c2ccccc2)OCCO4)cc1
-4%,O=C1CC(SCc2nc3ccccc3[nH]2)C(=O)N1c1cccc(Cl)c1 (stereo not drawn)
1%,COc1ccc(S(=O)(=O)NC(C)C(=O)Nc2ccccc2F)cc1 (stereo not drawn)
5%,Cc1ccc(S(=O)(=O)c2cccc(S(=O)(=O)N3CCCC3)c2)cc1S(=O)(=O)N1CCCC1
1%,Oc1oc(-c2ccccc2)nc1C=NCc1ccccc1
1%,Cc1ccc(S(=O)(=O)N(CC(=O)Nc2cccc([N+](=O)[O-])c2)C2CCCCC2)cc1
-8%,CC(C)(C)OC(=O)N1CCC(CC2CC(c3ccc(Cl)cc3)=NO2)(C(=O)NCC2CCCCC2)CC1 (stereo not drawn)
-2%,NC(=O)COc1ncnc2scc(-c3ccc(F)cc3)c12
15%,Cc1ccc(C)c(N2CCN(C(=O)c3cc4c(=O)n(Cc5cccs5)ccc4nc3C)CC2)c1
-9%,CC(C)(C)n1ncc2c(=O)n(CC(=O)N3CCCCC3)cnc21
-5%,FC(F)(F)c1ccc2c(c1)[nH]c(=S)n2C1CC1
13%,CCCN(C1CCS(=O)(=O)C1)S(=O)(=O)c1ccc2ccccc2c1 (stereo not drawn)
4%,O=C(O)CC1(CC(=O)NCc2ccncc2)CCCCC1
6%,CCC1(c2ccc(F)cc2)NC(=O)N(CC(=O)Nc2ccc(C(N)=O)cc2)C1=O (stereo not drawn)

Compounds listed so far with a carbonyl joined to an NH by a bond outside any ring:
VDR inhibitor,smiles
-6%,CCOc1ccc(OCc2ccc(C(=O)NC(C)(C)C)o2)cc1
27%,CC1(c2cc(F)ccc2F)NC(=O)N(CC(=O)Nc2cccc(S(=O)(=O)N3CCCC3)c2)C1=O (stereo not drawn)
-6%,COc1ccccc1OCCNC(=O)c1ccccc1OCc1c(C)noc1C
-4%,CCOC(=O)c1ccc(NC(=O)CN2C(=O)COc3ccc(Cl)cc32)cc1
-19%,O=C(Nc1ccc(NC(=O)c2cccs2)cc1)c1cccnc1
1%,COc1ccc(S(=O)(=O)NC(C)C(=O)Nc2ccccc2F)cc1 (stereo not drawn)
1%,Cc1ccc(S(=O)(=O)N(CC(=O)Nc2cccc([N+](=O)[O-])c2)C2CCCCC2)cc1
-8%,CC(C)(C)OC(=O)N1CCC(CC2CC(c3ccc(Cl)cc3)=NO2)(C(=O)NCC2CCCCC2)CC1 (stereo not drawn)
-2%,NC(=O)COc1ncnc2scc(-c3ccc(F)cc3)c12
4%,O=C(O)CC1(CC(=O)NCc2ccncc2)CCCCC1
6%,CCC1(c2ccc(F)cc2)NC(=O)N(CC(=O)Nc2ccc(C(N)=O)cc2)C1=O (stereo not drawn)

(continued)
VDR inhibitor,smiles
9%,COc1ccccc1N1CCN(C(=O)c2cccc(S(=O)(=O)Nc3ccccc3F)c2)CC1
4%,O=C(Nc1ccon1)c1cc(-c2ccccc2)nc2ccccc12
-5%,CCCSc1nnc(NC(=O)c2ccco2)s1
-9%,Cc1cccc(C(=O)Oc2cc(C)[nH]c(=O)c2[N+](=O)[O-])c1
7%,CCc1ccc(OC(C)C(=O)N(Cc2ccccc2)C2CCS(=O)(=O)C2)cc1 (stereo not drawn)
-23%,CN(Cc1cccnc1)C(=O)CCCc1c[nH]c2ccccc12
1%,Cc1ccc2nc(-c3cccc(NC(=O)CSc4ccc(Cl)cc4)c3)oc2c1
-11%,CCC(C)(C)n1nnnc1C(c1cc2cc(OC)ccc2[nH]c1=O)N1CCc2ccccc21 (stereo not drawn)
14%,CCOC(=O)c1c(NC(=O)CN2C(=O)CN(C)C2=O)sc(C)c1C
-13%,Cc1nn(-c2ccc(Cl)cc2Cl)c(C)c1C(=O)O
-24%,CC(Cl)C(=O)N1c2ccccc2CCc2ccccc21 (stereo not drawn)
-27%,CCCOc1ccc(C(=O)C(CN2CCOCC2)c2ccccc2)cc1 (stereo not drawn)

Molecules above containing a nitro group on carbon, in the order listed:
VDR inhibitor,smiles
1%,Cc1ccc(S(=O)(=O)N(CC(=O)Nc2cccc([N+](=O)[O-])c2)C2CCCCC2)cc1
-9%,Cc1cccc(C(=O)Oc2cc(C)[nH]c(=O)c2[N+](=O)[O-])c1

Further structures follow:
VDR inhibitor,smiles
-21%,COC(=O)C1N[C@@H]([C@@H](NC(=O)COc2ccccc2)C(=O)NC2CC2)SC1(C)C (stereo partly drawn)
7%,Cc1ccc(S(=O)(=O)NC(CC(N)=O)C(=O)O)cc1 (stereo not drawn)
-12%,COCCCN=CC1=C(O)CC(C)(C)CC1=O
3%,COc1ccc(-c2cn3nc(N4CCC(C(=O)Nc5ccc(C)cc5)CC4)sc3n2)cc1
6%,COc1ccccc1C1(CCNC(C)c2cccs2)CCOC(C(C)C)C1 (stereo not drawn)
-9%,CCOc1ccccc1NC(=O)C1C2C=CC(O2)C1C(=O)O (stereo not drawn)
-9%,O=C(CCC(=O)c1cccs1)NCc1cccc(Cl)c1
-7%,CCOc1cc(/C=N/NC(=O)c2nnn(-c3nonc3N)c2C)ccc1OCc1cccc(F)c1
-3%,C=CCn1c(SCc2ccc(Cl)cc2)nc2cc(C(=O)N3CCC(C(N)=O)CC3)ccc2c1=O
5%,CCC(=O)Nc1sc(C(=O)Nc2ccccc2F)c(C)c1C(=O)OC
2%,CCOC(=O)c1c(CC(C)C)csc1NC(C)=O
-25%,O=C(COC(=O)Cn1cnc2ccccc2c1=O)NCc1ccccc1
10%,COCc1cc(C)nc(SCC(=O)Nc2nc(C)cs2)c1C#N
-18%,CC(C)(C)OC(=O)N[C@@H](Cc1ccccc1)C(=O)N[C@@H](CO)[C@H](O)[C@@H]1C[C@@H]1C(=O)N1CCCC1
-1%,O=C(Cc1ccccc1)Nc1nc2ccccc2[nH]1
7%,O=C(/C=C/c1ccccc1)Nc1ccc(Br)cn1
3%,Cc1ccccc1NC(=O)CSc1ccc(-c2cccnc2)nn1
-7%,N#Cc1c(NC(=O)CCCN2C(=O)c3ccccc3C2=O)oc(-c2ccccc2)c1-c1ccccc1
-19%,Oc1ccccc1N1CCN(C(=S)NCc2ccccc2)CC1
-16%,CC1CCCCC1NC(=O)CN1C(=O)NC(C)(c2ccc(OC(F)F)cc2)C1=O (stereo not drawn)
10%,Cc1ccc2oc(=O)n(CCNC(=O)Nc3ccc(Cl)cc3)c2c1
-17%,O=C(COC(=O)c1ccccc1-c1ccccc1[N+](=O)[O-])c1ccccc1
-1%,COc1cc2[nH]c(=S)nc(NCCc3ccc(S(N)(=O)=O)cc3)c2cc1OC
6%,COc1ccc2c(c1)c1c(c(=O)n(-c3ccc(F)c(Cl)c3)c(=O)n1CC(=O)N1CCCC1)n2C
-1%,O=C(N/N=C/c1ccc(OC(F)F)cc1)c1ccc(CSc2nc3ccccc3[nH]2)cc1
1%,COc1cccc(/C=N/n2c(N)c(S(=O)(=O)c3cccs3)c3nc4ccccc4nc32)c1
-9%,CCCCc1c(C)[nH]c2nc3ccccc3n2c1=O
15%,CCN1CCN(c2cc3c(nn2)Oc2ccccc2N3C)CC1
-7%,O=C(c1ccc(Cl)c(S(=O)(=O)N2CCOCC2)c1)N1CCCC1
-14%,c1ccc(-c2csc3ncn4nnnc4c23)cc1
15%,CC[C@]12c3[nH]c4ccc(OC)cc4c3CCN1C(=O)C(CC(=O)NCCCOC)C[C@@H]2C(=O)N1CCN(C(=O)C2CC2)CC1 (stereo partly drawn)
16%,CC1CCCCN1C(=O)CSc1n[nH]c(-c2ccccc2)n1 (stereo not drawn)
1%,O=C(CNS(=O)(=O)c1cccc(Br)c1)NCCCc1ccccc1
12%,O=C(CCN1C(=O)c2ccccc2C1=O)N1CCN(C2c3ccccc3-c3ccccc32)CC1
2%,Cc1ccc(N(C(=O)Cn2nnc3ccccc32)C(C(=O)NCc2ccco2)c2ccc(C)o2)cc1 (stereo not drawn)
-13%,O=C(NCc1cccnc1)C(=O)NCC1OCCN1S(=O)(=O)c1ccc(F)cc1 (stereo not drawn)
24%,COc1ccc(NC(=O)NC2(C(=O)N3CCCCC3)CCCCC2)cc1
2%,CCCCCc1cc(=O)oc2c(C(CCN3CCCC(C)C3)c3ccc(OC)cc3)c(OC)cc(OC)c12 (stereo not drawn)
9%,O=C(O)C1Cc2ccccc2CN1C(=O)COc1ccc(Cl)cc1 (stereo not drawn)
-9%,CC1CCc2nn(CC(=O)NCCN3CCCCC3C)cc2C1 (stereo not drawn)
0%,O=C(N/N=C/c1ccncc1)c1ccc2c(c1)OCO2
-26%,O=C1C=C(c2cc(Cl)cc(Cl)c2)C[C@@H](c2ccc(F)cc2)C1
13%,O=C(COc1ccccc1)Nc1cc2c3c(c1)CC(=O)N3CCC2
-15%,COc1cc(OC)cc(C(=O)NNC(=O)c2ccc3ccccc3n2)c1
-5%,CCCc1nnc(SCC(=O)Nc2ccc(OC)cc2)n1N
3%,O=C(c1ccncc1)N1CCN(c2ccc(F)cc2)CC1
-2%,CCOc1ccccc1C(=O)Nc1ccc(-n2nncc2-c2ccccc2)cc1
-5%,O=C(c1ccc(Cl)nc1)N1CCN(C/C=C/c2ccccc2)CC1
-15%,COc1ccc(NC(=O)CC2C(=O)N(C)C(=S)N2Cc2ccco2)cc1 (stereo not drawn)
?,O=c1[nH]cc(N=Cc2cc(Cl)cc(Cl)c2O)c(=O)[nH]1
-11%,CN(C)S(=O)(=O)c1ccc(NC(=O)c2cc(-c3cccs3)nc3ccccc23)cc1
13%,Nc1nonc1-n1nnc(C(=O)N/N=C/c2ccccc2Cl)c1CSc1ccccc1
8%,CSCCC(NS(=O)(=O)c1ccc2c(c1)Cc1cc(S(=O)(=O)NC(CCSC)C(=O)O)ccc1-2)C(=O)O (stereo not drawn)
-25%,O=C(Cc1ccccc1[N+](=O)[O-])NCCc1ccc(F)cc1
-11%,CS(=O)(=O)c1ncc(N(Cc2ccco2)Cc2cccs2)c(C(=O)Nc2ccccc2F)n1
16%,CCOc1ccc(-n2cc(C(=O)c3cc(Cl)ccc3O)cc(C#N)c2=O)cc1
-27%,C/C(=C\c1ccccc1)C(=O)Nc1nccs1
-3%,Cc1cc(Br)ccc1NC(=O)CN(C)C(=O)CCSc1ccc(F)cc1
7%,CC1(C)NC(=O)N(CCOc2ccc([N+](=O)[O-])cc2)C1=O
5%,O=C(COc1cccc(Cl)c1)N1CCC(c2nc3ccccc3o2)CC1

(more compounds)
VDR inhibitor,smiles
-11%,Cc1cc2ccccn2c1C(=O)c1ccccc1F
9%,CC(=O)c1cccc(NC(=O)N2CCCC2C(=O)NCCC(C)C)c1 (stereo not drawn)
8%,Cc1cccnc1NC(=O)CN1C(=O)c2ccccc2S1(=O)=O
7%,COC(=O)C1=C(C)NC(=O)/C1=C\c1cc(C)n(-c2cc(C)cc(C)c2)c1C
-3%,CCN(CC)C(=O)c1ccccc1NC(=O)c1cccc(S(=O)(=O)N(CC)CC)c1
12%,C=CCNC(=O)C12CCC(C)(C(=O)[C@H]1Br)C2(C)C (stereo partly drawn)
-2%,COc1ccc(/C=C/C(=O)N(C)C2CCCCC2)cc1Br
-10%,COC(=O)CCCCCn1c(-c2ccccc2)cn2c3c(=O)n(C)c(=O)n(C)c3nc12
-16%,Cc1c(O)ccc2c(CN(C)Cc3ccccc3)cc(=O)oc12
?,CCOC(=O)c1cnn(-c2ccccc2)c1NC(=O)CN1CCOCC1
-3%,CN(C)c1ccc(NC(=O)CSC2=Nc3ccccc3C3=NC(CCC(=O)NCc4cccs4)C(=O)N23)cc1 (stereo not drawn)
0%,Cc1nn(-c2ccc(F)cc2F)c(=O)c2noc(C)c12
-13%,CC(=O)Nc1ccc(NC(=O)CSc2nc3nc(-c4cccs4)cc(C(F)(F)F)c3c(=O)[nH]2)cc1
5%,Cn1c(C(O)c2ccccc2F)nc(Cl)c1Cl (stereo not drawn)
-17%,N#C/C(=C\c1ccc([N+](=O)[O-])cc1)c1ccccn1
2%,COc1cc2cc(C(c3nnnn3C3CCCC3)N3CCCCC3)c(=O)[nH]c2cc1OC (stereo not drawn)
-1%,COc1ccc(/C=C/C(=O)Nc2cc(S(=O)(=O)N3CCOCC3)ccc2OC)cc1
-15%,Fc1ccc(-n2c(=S)[nH]c3cccnc32)cc1
-4%,Cc1cccc(C)c1Nc1sc(C(=O)c2ccccc2)c(N)c1S(=O)(=O)c1ccccc1
-4%,O=C1CCCN1CCCNC(=S)Nc1ccc(F)c(Cl)c1
7%,Cc1cc(=O)[nH]c(SCCc2ccccc2)n1
11%,CCCOc1ccc(CCc2n[nH]c(=S)n2Cc2ccccc2)cc1
3%&-18%&-11%,CNc1ncnc2c1ncn2[C@@H]1O[C@H](CO)[C@@H](O)[C@H]1O
22%,COc1cccc(C(=O)OCC(=O)NCCCc2ccccc2)c1
-3%,C=C(C)Cn1c(SCC(=O)O)nnc1-c1ccc(C(C)(C)C)cc1
-1%,CC(CN1CCOCC1)OC(=O)c1ccccc1Br (stereo not drawn)
5%,Cc1ccc(Cl)cc1N1CCN(C(=O)c2ccc3nc(N4CCC(C)CC4)sc3c2)CC1
